# Source: PubChem BioAssay (National Center for Advancing Translational Sciences (NCATS))
# SARS PLP yeast = SARS-CoV PLP inhibition in yeast. 0.19% of 330,000 active. S. cerevisiae expressing SARS-CoV PLpro, growth rescue; control for the full effect not named in the record. Potency, µM (series often up to 32.9 µM), for the others: at the top dose activity, positive = growth rescue; note: 0% is about no effect; nearly all actives have a fitted effect of over 55% in size; growth read by luminescence after 48 h
# RE007 growth inh = less growth of the S. pombe RE007 Vpr strain | AID 651644 | 0.21% of 360,000 active | S. pombe RE007 Vpr strain, BacTiter-Glo ATP luminescence, 24 h; control for the full effect not named in the record | Potency, µM (doses to about 92.2 µM), without a hit: at the highest dose activity change, negative = less growth; active = well fitted falling curve with a large enough effect; inconclusive = small, poorly fitted or top-dose-only effect; inactive = no such curve, though single readings can be large or run the other way;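 note: % is set by controls: 0 for no effect and ±100 for the full control effect; nearly all actives have a fitted effect of over 50% in size; the assay follows cell death caused by Vpr and the record does not say whether a fall means rescue or toxicity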
#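 Fission yeast RE007 carrying one integrated HIV-1 vpr copy, seeded at OD 0.01 in PMG+AL medium with 23 nL pinned compound. Grown 24 h at 30 degrees; viability read by BacTiter-Glo luminescence after 5 min.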
# MARV entry inh = blocks Marburg virus binding to or entry into cells | Marburg virus pseudotyped entry inhibition, cell reporter; control for the full effect not named in the record; about a third of the inactives were read at about 46 µM | Potency, µM (titrated, usually from 37.8 µM), inactives show top-dose activity change, negative = inhibition, hits mostly inhibitors | 1.8% of 300,000 active | AID 540276; active = well fitted inhibition curve with a large enough effect; inconclusive = small, poorly fitted or top-dose-only effect, or effect the other way; inactive = flat fitted curve, though single readings scatter; tested in HEK293 cells; about a fifth of its hits are not listed in these tables; note: % is set by controls: 0 for no effect and ±100 for the full control effect; luciferase read-out
# Lassa entry inh = blocks Lassa virus binding to or entry into cells; Lassa virus pseudotype entry inhibition, cell reporter; control for the full effect not named in the record; Potency, µM (series often up to 37.9 µM), without a hit: at the top dose activity change, negative = inhibition, usual class: inhibitors; 1.2% of 300,000 active; active means well fitted inhibition curve with a large enough effect; inconclusive means small, poorly fitted or top-dose-only effect, or effect the other way; inactive means flat fitted curve, though single readings scatter; tested in HEK293 cells; note: % is set by controls: 0 for no effect and ±100 for the full control effect; nearly all actives have a fitted effect of over 50% in size; luciferase read-out
# Cruzain inh Det = blocks cruzain activity in presence of Triton detergent; purified cruzain, Z-FR-AMC fluorescence, 0.01% Triton; P25779; 0.43% of 200,000 active; AID 1478; Potency, µM, for inactives: max response, negative = inhibition, usual class: inhibitors; active = well fitted curve in the direction sought with a large enough effect; inconclusive = small, poorly fitted or top-dose-only effect, or another doubt; inactive = no such curve, though single readings can be large; an effect the other way counts as inactive or inconclusive;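 note: plate controls were neutral wells for no effect and buffer without enzyme for full effect; nearly all actives have a fitted effect of over 40% in size; top concentration of the series not given in the record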
# Target sequence (P25779 123-467 limits assumed): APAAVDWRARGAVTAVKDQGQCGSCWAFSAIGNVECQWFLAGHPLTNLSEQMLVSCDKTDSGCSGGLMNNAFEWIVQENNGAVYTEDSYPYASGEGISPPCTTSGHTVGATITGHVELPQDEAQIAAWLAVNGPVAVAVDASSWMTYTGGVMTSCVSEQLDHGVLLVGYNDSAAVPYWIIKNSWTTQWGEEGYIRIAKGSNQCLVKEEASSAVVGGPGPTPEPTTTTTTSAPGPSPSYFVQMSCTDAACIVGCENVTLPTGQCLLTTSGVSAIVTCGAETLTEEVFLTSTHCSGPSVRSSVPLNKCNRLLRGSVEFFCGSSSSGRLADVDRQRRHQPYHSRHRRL
#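 Cysteine protease activity tested under reducing, mildly acidic conditions (100 mM sodium acetate pH 5.5, 5 mM DTT) plus 0.01% Triton X-100. Cruzain 1.5 nM; substrate Z-FR-AMC 2 uM; 15 min compound preincubation at room temperature.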
# StopGo reporter = FMDV 2A StopGo reporter, luciferase signal; 1.2% of 410,000 active; Potency, µM (series often up to 57.9 µM), for the others: top-dose signal change, negative = less light; human cells with a luciferase reporter of 2A StopGo recoding; control for the full effect not named in the record; active = well fitted falling curve with a large enough effect; inconclusive = small, poorly fitted or top-dose-only effect; inactive = no such curve, though single readings can be large or run the other way; tested in HEK293T cells; note: % is set by controls: 0 for no effect and ±100 for the full control effect; nearly all actives have a fitted effect of over 45% in size; luciferase light after 4 h
# Cruzain inh noDet = cruzain (T. cruzi) inhibition without detergent; P25779; purified cruzain, Z-FR-AMC fluorescence, no detergent; Potency, µM, for inactives: max response, negative = inhibition, usual class: inhibitors; 2.3% of 200,000 active; AID 1476; active = well fitted curve in the direction sought with a large enough effect; inconclusive = small, poorly fitted or top-dose-only effect, or another doubt; inactive = no such curve, though single readings can be large; an effect the other way counts as inactive or inconclusive;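 note: plate controls were enzyme without inhibitor for no effect and buffer without enzyme for full effect; nearly all actives have a fitted effect of over 40% in size; top concentration of the series not given in the record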
#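 Purified cruzain at 1.5 nM, pre-incubated 15 min with compound at room temperature in 100 mM sodium acetate pH 5.5, 5 mM DTT, 0.00005% Triton X-100. Reaction started with 2 uM Z-FR-AMC; AMC fluorescence increase over 60 s gives rate.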
# NS1 function inh = influenza NS1 inhibition; S. cerevisiae slowed by influenza A NS1, growth recovery by OD600; 0.4% of 270,000 active; Potency, µM (series often up to 46.1 µM), for the others: at the highest dose activity, positive = more growth; note: actives are rising curves; nearly all actives have a fitted effect of over 50% in size
#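 OD600 was taken as the measure of yeast growth restored by compound in an NS1-expressing S. cerevisiae strain. Cells had been washed out of glucose medium and diluted 1:100 into galactose -URA medium, pH 6.0.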
# * marks the source's active call; other numbers are inactive results; ? = inconclusive; . = no result given; & = joins results of further samples; [ ] = dose if it differs, or a comment. Unless noted, calls come from the whole dose curve; as a rule, active means well fitted rising curve with a large enough effect; inconclusive means small, poorly fitted or top-dose-only effect; inactive means no such curve, though single readings can be large or run the other way. Potency is the fitted concentration of half-maximal effect.
# Preview, 6 compounds:
SMILES,SARS PLP yeast,RE007 growth inh,MARV entry inh,Lassa entry inh,Cruzain inh Det,StopGo reporter,Cruzain inh noDet,NS1 function inh
CC(C(=O)Nc1cccnc1)C1Sc2ccccc2NC1=O (centres undefined),-1%,-1%,.,.,.,3%,.,4%
CCN(CC)c1ccc(/C=N/NC(=O)c2nnn(-c3nonc3N)c2-c2ccc(C)cc2)cc1,2%,11%,.,.,.,-15%,.,17%
COC(=O)C1=C(C(=O)OC)[C@@H]2N(C)c3ccc(OC)cc3[C@@]23C[C@@H](C(=O)OC)N(C(=O)C2CCC2)C3=N1,2%,-10%,.,.,.,-16%,.,-14%
COCCOc1cc(NC(=O)CS(=O)CC(=O)N(C)C)c(Cl)cc1Cl (centres undefined),-1%,-1%,15%[46.1 µM],7%[46.1 µM],.,27%,.,1%
COc1ccc(C(C(=O)NC(C)(C)C)N(C(=O)CNC(=O)c2cccs2)c2ccc(C)cc2)cc1OC (centres undefined),-2%,-3%,-5%,12%,6.3%,.,?,19%
CCOc1ccccc1N(C)S(=O)(=O)c1ccc2[nH]cc(C(=O)N(CCOC)CCOC)c(=O)c2c1,1%,10%,?,3%[46.1 µM],.,-7%,.,1%

# Main list, previewed entries included:
SMILES,SARS PLP yeast,RE007 growth inh,MARV entry inh,Lassa entry inh,Cruzain inh Det,StopGo reporter,Cruzain inh noDet,NS1 function inh
CC(C(=O)Nc1cccnc1)C1Sc2ccccc2NC1=O (centres undefined),-1%,-1%,.,.,.,3%,.,4%
CCN(CC)c1ccc(/C=N/NC(=O)c2nnn(-c3nonc3N)c2-c2ccc(C)cc2)cc1,2%,11%,.,.,.,-15%,.,17%
COC(=O)C1=C(C(=O)OC)[C@@H]2N(C)c3ccc(OC)cc3[C@@]23C[C@@H](C(=O)OC)N(C(=O)C2CCC2)C3=N1,2%,-10%,.,.,.,-16%,.,-14%
COCCOc1cc(NC(=O)CS(=O)CC(=O)N(C)C)c(Cl)cc1Cl (centres undefined),-1%,-1%,15%[46.1 µM],7%[46.1 µM],.,27%,.,1%
COc1ccc(C(C(=O)NC(C)(C)C)N(C(=O)CNC(=O)c2cccs2)c2ccc(C)cc2)cc1OC (centres undefined),-2%,-3%,-5%,12%,6.3%,.,?,19%
CCOc1ccccc1N(C)S(=O)(=O)c1ccc2[nH]cc(C(=O)N(CCOC)CCOC)c(=O)c2c1,1%,10%,?,3%[46.1 µM],.,-7%,.,1%
Cc1cc(C)c(NC(=O)c2cnn(C)c2)c(C)c1,3%,16%,5%,-1%,-1.2%,-24%,-7%,-1%
c1cnn(Cc2cnc(N3CCOCC3)s2)c1,0%,-6%,-14%[46.1 µM],-2%[46.1 µM],.,7%,.,1%
CC(C)Cn1c(=O)c(C(=O)NCc2ccc3c(c2)OCO3)c(O)c2ccccc21,11%,1%,.,.,.,5%,.,4%
O=C(NC(Nc1nc2ccc([N+](=O)[O-])cc2s1)(C(F)(F)F)C(F)(F)F)c1ccccc1,-54%,-13%,0.52µM*,0.92µM*,-6.3%,?,2%,-161%
CCOc1ccccc1N(C)C(=O)c1c2c(nc3ccccc13)C(=O)N(C1CCCCC1)C2,.,.,.,-7%[46.1 µM],-4.1%,?,-8%,.
Cc1ccc(CSc2nc3ccsc3c(=O)n2Cc2ccccn2)cc1,-5%,92%,?,1%,-7.6%,?,-6%,14%
O=C(CCCN1CCC(C(=O)c2ccc(F)cc2)CC1)c1ccc(F)cc1,3%,12%,.,.,.,0%,.,4%
COc1ccccc1Nc1nc(-c2cccc(N3C(=O)c4ccccc4C3=O)c2)cs1,?,4%,?,-2%,-3.0%,10%,7.9µM*,?
CC(C)c1ccccc1NC(=S)N(C)C,1%,-1%,-3%[46.1 µM],0%,.,2%,.,1%
COc1cccc(CN2CC(C(=O)N(C)C3CCOCC3)CCC2=O)c1 (centres undefined),3%,9%,10%[46.1 µM],1%[46.1 µM],.,5%,.,6%
CC(=O)Nc1ccc(NC(=O)c2cc(=O)c3ccccc3o2)cc1,0%,1%,5%&29%[46.1 µM],-3%&27%[46.1 µM],-5.2%,-1%&-18%,11%,-1%
Cc1cc(C(F)(F)F)nn1CC(=O)NNC(=S)Nc1ccc(F)cc1,3%,17%,7%,10%,-1.5%,-8%,-2%,14%
O=C(COC(=O)c1ccc([N+](=O)[O-])cc1Cl)NC(=O)c1ccccc1,0%,12%,12%,29%[46.1 µM],.,4%,.,.
NC(=O)[C@H](Cc1cc2ccccc2s1)NC(=O)[C@@H]1CC2(CC(c3cccc(NC(=O)[C@@H]4CCC(=O)N4)c3)=NO2)CN1C(=O)c1ccccc1 (some centres undefined),5%,11%,.,.,5.8%,-5%,?,-1%
COc1cccc(C(c2sc3nc(C)nn3c2O)N2CCN(C(=O)c3ccco3)CC2)c1 (centres undefined),6%,-3%,0%,.,0.9%,20%,10%,-5%
COc1ccc(OCC(=O)NCCNC(=O)c2cccnc2)cc1,0%,-4%,14%[46.1 µM],19%[46.1 µM],.,0%,.,5%
O=C1CC(C2CCCO2)C(=O)N1Cc1ccccc1 (centres undefined),2%,-6%,3%[46.1 µM],12%,9.4%,?,10%,12%
COc1cc2nc(CC(C)C)n(NC(=O)c3ccccc3)c(=O)c2cc1OC,-10%,?,10%,5%,4.7%,-15%,23%,-10%
Cc1ccc(NC(=O)CSc2ccccc2NC(=O)c2cccc(Cl)c2)cc1Cl,-19%,-10%,?,?,2.8%,-21%,8%,11%

# The listing continues.
SMILES,SARS PLP yeast,RE007 growth inh,MARV entry inh,Lassa entry inh,Cruzain inh Det,StopGo reporter,Cruzain inh noDet,NS1 function inh
CCOc1ccc2c(c1)OC(c1ccc(C)cc1)(C(F)(F)F)NC2=O (centres undefined),0%,-3%,-26%,?,-11%,-2%,-1%,17%
Cc1ccc(COC(=O)NCc2cccnc2)cc1,2%,-4%,.,.,.,-19%,.,9%
O=C1c2c(Cl)c(Cl)c(Cl)c(Cl)c2C(=O)N1c1nccs1,.,-3%,0%,-3%,.,-20%,.,.
COc1ccc(CCNS(=O)(=O)c2cn(C)cn2)cc1OC,2%,21%,.,.,.,-3%,.,0%
CCCc1cc(NCCCCO)n2c(nc3ccccc32)c1C#N,6%,2%,-10%&-10%,0%,-29%,-16%,29%,-7%
COc1ccc(OCc2cc(C(=O)NCc3cccc(C)n3)no2)c(Cl)c1,-11%,-15%,?,2%,.,7%,.,0%
CC(OC(=O)c1ccc2ncsc2c1)C(=O)NCc1ccccc1 (centres undefined),?,.,0%,.,-2.8%,.,28%,-5%
O=C(O)CCCCN1C(=O)/C(=C\c2ccc(OCc3ccccc3)c(OCc3ccccc3)c2)SC1=S,0%,-2%,.,.,.,-2%,.,-5%
O=C(NCc1ccccc1Cl)C1CCCN1C(=O)NCc1ccccc1 (centres undefined),0%,-5%,.,.,.,-4%,.,6%
CC(OC(=O)c1cccc(-n2cnnn2)c1)C(=O)Nc1ccc(F)cc1 (centres undefined),1%,-13%,-12%[46.1 µM],-27%[46.1 µM],.,-22%,.,10%
CC1CN(C(=O)Cn2cc(SCC(=O)N3CCOCC3)c3ccccc32)CC(C)O1 (centres undefined),5%,5%,3%[46.1 µM],?,.,18%,.,8%
Cc1cc(C)cc(NC(=O)CN2C(=O)NC(Cc3c[nH]c4ccccc34)C2=O)c1 (centres undefined),4%,-17%,1%,14%,.,-10%,.,.
COc1cc(C2CC(=O)Oc3cc(C)c(Br)c(C)c32)cc(OC)c1OC (centres undefined),-40%,-9%,.,.,-3.3%,0%,29%,.
O=C(OCn1nnc2ccccc2c1=O)c1ccc(S(=O)(=O)N2CCOCC2)cc1,2%,12%,24%,-2%,3.7%,-9%,11%,-26%
Cc1cc(C)c(S(=O)(=O)NCC2CCC(C(=O)NCCCN3CCC(C)CC3)CC2)c(C)c1 (centres undefined),1%,6%,.,.,.,15%,.,-16%
CCC(c1nnnn1CCC(C)C)N1CCC(C(N)=O)CC1 (centres undefined),?,-4%,-20%[46.1 µM],0%,5.7%,-8%,-3%,2%
CCc1ccc(NC(=O)c2ccc(NS(=O)(=O)c3c(C)noc3C)cc2)cc1,.,.,20%[46.1 µM],-11%[46.1 µM],0.9%,-2%,-1%,.
Cc1nc(C(N)=O)c(N)n1CCc1ccccc1,2%,-2%,-2%,1%,.,14%,.,1%
Cn1c(=O)c2c(nc(NC3CCCCC3)n2Cc2ccccc2)n(C)c1=O,10%,1%,.,.,-3.2%,?,-5%,-86%
CC(/C=N/NC(=O)c1sc(N)nc1C)=C\c1ccccc1,9%,8%,18%[46.1 µM],-5%[46.1 µM],.,0%,.,.
CCOC(=O)COc1c(OC)cc(Cl)cc1C1NC(=O)NC(C)=C1C(C)=O (centres undefined),0%,7%,-4%,-28%,0.1%,0%,3%,-9%
CCOC(=O)c1c(S(=O)(=O)NCCCc2ccco2)c(C)n(C)c1C,-4%,1%,.,.,.,35%[activator],.,7%
Cc1ccc(S(=O)(=O)CCC(=O)Oc2ccc(-c3nnco3)cc2)cc1,2%,30%,2%[46.1 µM],1%,.,-7%,.,.
Cc1cc(NC(=O)CCC(=O)N(c2cccnc2)C(C(=O)NC2CCCC2)c2ccccc2F)no1 (centres undefined),-4%,-19%,-1%[46.1 µM],3%,0.4%,-6%,6%,-3%
C[C@H](NS(=O)(=O)c1ccc2c(c1)OCCCO2)C(=O)N1CCN(Cc2ccc(C#N)cc2)CC1,-10%,10%,-9%,8%,.,0%,.,.
Cc1cccc(NC(=O)c2cc(C)nc3ccccc23)c1,2%,8%,.,.,.,-24%,.,-1%
CCOc1ccc(OCC)c(S(=O)(=O)N2CCN(c3cccc(C)c3C)CC2)c1,.,.,?,?,-4.8%,-12%,-8%,.
COc1ccc(-c2cc3ccccc3oc2=O)cc1NC(=O)c1ccc([N+](=O)[O-])o1,-12%,-20%,-29%,-22%,-3.6%,-6%,-22%,-4%
Cc1ccc(C(=O)Nc2cc(-c3cn4cccnc4n3)ccc2C)cc1C,.,.,.,?,-1.5%,-16%,4%,.
